PrP UTR inh: inhibition of PrP 5' UTR reporter expression; cell-based PrP 5' UTR mRNA reporter, plate reader; inhibition, % (no concentration beside the values); actives 0.35% (n = 340,000);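 active = every replicate at 50% or more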;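 note: 0 = median of the neutral control wells; tested in H4 reporter cells; numbers are from one replicate; inactives centre near -14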
RN4220 kill: growth inhibition of S. aureus RN4220, primary screen, OD600. 16 h. inhibition, % (concentration not given with the values). actives 0.33% (n = 330,000). AID 1259311, 2017;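 active = z-score of -3 or lower and OD600 up to 0.18 on both plates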;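 note: plate controls were untreated cells for no effect and reference antibiotic for full effect; stock transfer was 100 nL into about 80 µL; one replicate is shown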
Mtb hypoxia rep: PubChem AID 1159583 | M. tuberculosis hypoxia-regulated fluorescent reporter, fluorescence | fluorescence inhibition, % (test concentration not listed) | actives 0.1% (n = 300,000);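 active = 35 to 45% if threefold the growth effect, above 45% if 1.5-fold the growth effect; inactive = the rest, general growth blockers included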;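 note: wells of about 50 µL received 100 nL stock; 0% = vehicle wells and 100% = reference inhibitor wells; whole bacteria with a GFP reporter of the hypoxia response; strong numbers were not always called active; many hits fall short of the cut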
Sa ugtP lethal: growth inhibition of ugtP-null S. aureus, primary screen, RN4220 ugtP deletion, OD600; actives 0.54% (n = 330,000); growth inhibition, % (no concentration beside the values); AID 1259309, 2017; 16 h; some inactives read as strong as hits;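 active = z-score under -3 and OD600 up to 0.15 on both plates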;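 note: plate controls were untreated wells for no effect and antibiotic for full effect; wells of about 80 µL received 100 nL stock; the first replicate is given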
BJeLR viability: MLPCN primary cell-based screen for lethality selective to Ras in HRASV12 cells; BJeLR (HRASV12) viability, CellTiter-Glo ATP luminescence, 48 h; reference of the scale not given here; inhibition, % (test concentration not listed); actives 0.17% (n = 300,000); AID 1554, 2009;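 active = replicate mean above 50%; inconclusive = above 50% but judged a plate artefact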;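 note: 50 nL library stock added to about 25 µL; numbers are from one replicate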
Autofluor counter: counter-screen for toxin protease inhibitors: compound fluorescence; fluorescence intensity (no concentration beside the values); AID 624483; compound autofluorescence counterscreen, microsphere flow cytometry; active compounds read high; actives 3.1% (n = 360,000);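 active = at least 3 SD above the mean of all compounds, about 16000 in these data; inconclusive = too few beads counted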;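 note: 100 nL of 1 mM stock went into each well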
Mtb hypoxia rep growth: second read-out of Mtb hypoxia rep, no call of its own (marks repeat the call); growth inhibition, %; measured here: M. tuberculosis growth (absorbance);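 0% = vehicle and 100% = reference antibiotic; read after six days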
Starred values were filed as active, the others as inactive; ? = inconclusive; . = not tested or not shown. Rows were taken by chance; any-hit rate near 4%.

A first look, 11 compounds:
SMILES	PrP UTR inh	RN4220 kill	Mtb hypoxia rep	Mtb hypoxia rep growth	Sa ugtP lethal	BJeLR viability	Autofluor counter
COc1ccc(NS(=O)(=O)c2ccc(C)c(C(=O)OC(C)C(=O)N3CCOCC3)c2)cc1 (stereo unspecified)	-23	2.0	-5	2	6	3	?
Cn1c2ccccc2c2cnn(CC(=O)Nc3ccc(Cl)cc3)c(=O)c21	-27	2.2	-5	-12	-6	5	5494
COc1nn(C(C)C(=O)N2N=C(C(F)F)CC2(O)C(F)F)cc1[N+](=O)[O-] (stereo unspecified)	-39	6.4	-2	8	-6	3	20181*
CCCCOC(=O)Nc1nnc(CCOCC)s1	4	4.3	8	11	-3	-8	4238
NS(=O)(=O)c1ccc(CCNC(=O)COC(=O)CN2C(=O)C3CCCCC3C2=O)cc1 (stereo unspecified)	-43	0.3	10	-6	2	-9	4417
COc1ccc(-c2noc(CNC(=O)CCN3C(=O)[C@H]4CC=CC[C@H]4C3=O)n2)cc1	-6	-2.5	7	-4	-1	-9	4483
O=C1CSC(=S)N1N=Cc1ccc(O)c(O)c1O	.	22	7	13	-14	.	.
C=CCOC(=O)C1=C(C)NC(SCC(N)=O)=C(C#N)C1c1ccc(C)cc1 (stereo unspecified)	-18	3.5	-1	-2	11	-5	6408
CCSc1nc(C)c(C(C)=O)cc1C#N	-6	1.0	-7	3	-8	-1	2933
O=C(NN=Cc1cccc2ccccc12)c1cccc(F)c1	.	0.3	.	.	-3	.	.
CC(=O)N1CCN(C(=O)c2cc(S(=O)(=O)Nc3ccc(S(C)(=O)=O)cc3)ccc2Cl)CC1	-20	3.6	7	2	3	6	4965

Results, previewed entries included:
SMILES	PrP UTR inh	RN4220 kill	Mtb hypoxia rep	Mtb hypoxia rep growth	Sa ugtP lethal	BJeLR viability	Autofluor counter
COc1ccc(NS(=O)(=O)c2ccc(C)c(C(=O)OC(C)C(=O)N3CCOCC3)c2)cc1 (stereo unspecified)	-23	2.0	-5	2	6	3	?
Cn1c2ccccc2c2cnn(CC(=O)Nc3ccc(Cl)cc3)c(=O)c21	-27	2.2	-5	-12	-6	5	5494
COc1nn(C(C)C(=O)N2N=C(C(F)F)CC2(O)C(F)F)cc1[N+](=O)[O-] (stereo unspecified)	-39	6.4	-2	8	-6	3	20181*
CCCCOC(=O)Nc1nnc(CCOCC)s1	4	4.3	8	11	-3	-8	4238
NS(=O)(=O)c1ccc(CCNC(=O)COC(=O)CN2C(=O)C3CCCCC3C2=O)cc1 (stereo unspecified)	-43	0.3	10	-6	2	-9	4417
COc1ccc(-c2noc(CNC(=O)CCN3C(=O)[C@H]4CC=CC[C@H]4C3=O)n2)cc1	-6	-2.5	7	-4	-1	-9	4483
O=C1CSC(=S)N1N=Cc1ccc(O)c(O)c1O	.	22	7	13	-14	.	.
C=CCOC(=O)C1=C(C)NC(SCC(N)=O)=C(C#N)C1c1ccc(C)cc1 (stereo unspecified)	-18	3.5	-1	-2	11	-5	6408
CCSc1nc(C)c(C(C)=O)cc1C#N	-6	1.0	-7	3	-8	-1	2933
O=C(NN=Cc1cccc2ccccc12)c1cccc(F)c1	.	0.3	.	.	-3	.	.
CC(=O)N1CCN(C(=O)c2cc(S(=O)(=O)Nc3ccc(S(C)(=O)=O)cc3)ccc2Cl)CC1	-20	3.6	7	2	3	6	4965
O=C(Oc1cccc(NC(=O)c2ccco2)c1)c1ccc(Br)c(S(=O)(=O)N2CCCCC2)c1	-10	0.2	6	7	-10	-8	9849
COc1ccc(/C(N)=N/OC(=O)c2ccc(C)c([N+](=O)[O-])c2)cc1OC	-29	.	.	.	.	-5	3183
Cc1onc(-c2ccccc2Cl)c1C(=O)N1CCN(c2ncccn2)CC1	-12	0.5	19	-5	3	9	4447
CCn1c(SCC(=O)NN=Cc2ccccc2OCC(=O)O)nnc1-c1ccccc1	.	3.1	13	1	7	.	.
Cc1ccc(-c2csc(C3C(N)=NC(S)=C(C#N)C34CCCCC4)n2)cc1 (stereo unspecified)	-7	-3.8	3	2	1	-12	8318
COCCNc1nc2ccccc2n2cnnc12	-13	4.1	16	1	2	-2	3105
O=[N+]([O-])c1cccc(-c2ccc(SCc3cccnc3)nn2)c1	-31	11	7	14	-60	-8	3213
Cc1c(C=O)c2ccccn2c1C(=O)c1ccccc1Cl	-9	5.9	13	0	14	-1	2961
COc1ccc(-n2nc3c(c2NC(=O)c2c(-c4ccccc4Cl)noc2C)CS(=O)(=O)C3)cc1	-3	-4.0	-7	-6	-4	-15	9795
CC1=C(C(N)=O)C(c2cccs2)NC(=O)N1 (stereo unspecified)	-9	2.9	13	5	3	-6	3054
Cc1nc(-c2ccc(-c3ccon3)s2)no1	-40	5.9	-16	-7	4	-12	6109
O=C(C/C=N\OCc1ccc([N+](=O)[O-])cc1)Nc1ccc(Cl)cc1	-22	.	.	.	.	5	4982
Cc1cc(Br)ccc1NC(=O)CNC(=O)c1cnn(C)c1	-6	4.0	-1	5	1	.	3434
O=S(=O)(c1ccc(-c2csc(-c3cccnc3)n2)cc1)N1CCCCC1	-26	11	-3	6	-7	9	22447*
CCOc1ccc(C=NNC(=O)C(=O)N2CCCCCC2)c2ccccc12	.	3.5	11	-1	10	.	.
COc1ccc(-c2c(=O)n(OCc3ccccn3)c3ccccc3[n+]2[O-])cc1OC	-37	-1.3	-4	0	-6	-4	2701
CCOC(=O)c1c(C)c(C(=O)NC(C)COC)c(C)n1C (stereo unspecified)	3	1.1	4	4	4	-4	17439*
Cc1nc2ncnn2c(C)c1CCC(=O)Nc1csc(N)n1	-43	4.4	0	2	0	0	18816*
CN(C)c1cc(-c2ccc(Cl)cc2Cl)oc(=O)c1Cl	-23	-1.9	1	5	-11	-4	3758
CN1c2ccccc2C2(C)CCCC3=Cc4cc([N+](=O)[O-])cc([N+](=O)[O-])c4OC312 (stereo unspecified)	4	-6.3	7	6	17	-6	2358
C=CCC(CC(=O)NC(CO)Cc1ccccc1)C(=O)NCC(OC(=O)C(CC=C)CC(=O)OC(C)(C)C)c1ccccc1 (stereo unspecified)	.	6.0	4	14	6	.	.
COc1cccc(NC(=S)N2CCc3cc(OC)c(OC)cc3C2COc2ccc3c(C)cc(=O)oc3c2)c1 (stereo unspecified)	-2	2.1	3	1	1	-3	1970
Cc1cc([N+](=O)[O-])c2ccccc2[n+]1[O-]	87*	8.0	.	.	77	40	4493
CCOC(=O)c1ccc(NC(=O)Nc2ccc(S(N)(=O)=O)cc2)cc1	-15	-3.4	1	0	5	7	24361*
O=S(=O)(Cc1cccc(F)c1)c1c[nH]c2ccccc12	1	17	4	15	-2	3	4360
CCOc1ccc(C2CC(=O)NC(SC)=C2C#N)cc1 (stereo unspecified)	-43	7.0	12	7	11	5	5929
Clc1cccc(Cl)c1CON=Cc1cccs1	.	1.6	7	-6	6	.	.
CCN(CC(=O)Nc1ccccc1C(F)(F)F)C(=O)CCOc1ccc(C)cc1	-19	8.5	11	0	2	-6	6299
COc1ccc(C2c3ccc(O)cc3Oc3ncn(CC(C)C)c(=N)c32)cc1 (stereo unspecified)	9	3.5	11	-1	10	-14	4497
CN(C)c1ccc(P(=O)(OCc2ccccc2)C(O)c2ccc(Cl)cc2)cc1 (stereo unspecified)	-21	4.2	14	5	-7	-13	.
COc1nc(N2CCCCCC2)nc(N2CCCCCC2)n1	-24	-2.1	2	4	65	3	?
Nc1ccc2c(=O)[nH][nH]c(=O)c2c1	-2	-1.1	4	-2	-4	.	3898
CC(C)c1ccc(/C=N/NC(=O)CC(=O)NC2CCCCC2)cc1	-11	.	.	.	.	1	2146
COC(=O)c1ccc(NC(=O)c2nc(S(=O)(=O)Cc3cccc(C)c3)ncc2Cl)cc1	-4	.	.	.	.	17	5759
O=[N+]([O-])c1cccc(Oc2cnccn2)c1	-13	4.3	4	9	4	-6	3349
Cc1cccc(NC(=O)NC(C)C(c2ccccc2)N2CCN(C)CC2)c1 (stereo unspecified)	-22	5.0	11	11	4	-22	4338
Cc1nc(SCc2nc3c(C)cccc3[nH]2)c2oc3ccccc3c2n1	-14	4.2	15	5	4	.	3182
CCn1c(N2CCN(C(=S)NC)CC2)nc2ccccc21	-32	3.4	7	4	3	6	10564
CC(C)(C)NC(=O)Cn1c(Cl)nc2ccccc21	-26	3.6	12	10	8	8	4387

Later entries.
SMILES	PrP UTR inh	RN4220 kill	Mtb hypoxia rep	Mtb hypoxia rep growth	Sa ugtP lethal	BJeLR viability	Autofluor counter
COc1ccc(S(=O)(=O)N2CCCC2CNC(=O)C(=O)NC2CC2)cc1 (stereo unspecified)	1	1.9	-6	-1	4	-4	?
CC(=O)Nc1cc2c(ccc3ccccc32)oc1=O	-15	6.5	-2	-4	12	6	3352
Cc1ccc2oc(=O)c3cnn(CC(=O)NCCN4CCOCC4)c3c2c1	-36	-11	10	12	-2	-2	5763
CC1CC(C)CN(S(=O)(=O)c2ccc3oc(=O)ccc3c2)C1 (stereo unspecified)	-18	3.1	7	-4	10	0	4168
CCN(C(=O)CSc1nnc(-c2cccc(Cl)c2)n1N)c1c(N)n(Cc2ccccc2)c(=O)[nH]c1=O	12	5.4	-1	4	12	.	3161
COc1ccc(-n2nnnc2SCC(=O)NNC(=O)c2ccc([N+](=O)[O-])cc2)cc1	-17	-5.7	-6	-13	-3	-21	1944
Cc1ccc(S(=O)(=O)NNC(=O)C2CC=CCC2C(=O)O)cc1 (stereo unspecified)	-34	3.8	5	7	4	-1	4287
COC(=O)C1=C(C)N(Cc2ccccc2)C(=O)N[C@H]1CCc1ccccc1	-16	.	.	.	.	2	4143
O=C(NCC(=O)N(CCc1ccccc1)C(C(=O)NC1CCCCC1)c1ccncc1)c1ccco1 (stereo unspecified)	-1	1.2	.	.	6	1	4540
C=CCn1c(C(C)NC(=O)c2ccccc2C)n[nH]c1=S (stereo unspecified)	-23	1.0	-9	-1	-4	-13	9031
Cc1ccc(NS(=O)(=O)c2ccc(CCC(=O)NCCCOC(C)C)cc2)cc1	-18	7.3	-3	-4	13	11	2571
O=C1N(Cc2cccnc2)C[C@@H]2C[C@@H](c3ccc4nsnc4c3)N3CCC[C@@]123	-4	0.4	13	5	3	-4	2727
Fc1ccc(NC(=S)N2CCCC2)cc1	-15	1.9	4	10	9	2	3487
CC(N)=C(C#N)C(=O)CSc1nc2ccccc2c(=O)n1CCCO	.	0.4	5	10	-26	.	.
C=CCN(Cc1nc(-c2ccc(OC)cc2)no1)C(=O)c1ccc2c(c1)OCO2	-17	-1.9	-3	6	19	6	3725
COc1ccc(S(=O)(=O)NN=Cc2ccc([N+](=O)[O-])o2)c(OC)c1	.	4.1	-2	0	12	.	.
Cc1cccc(CC2S/C(=N/N=Cc3ccco3)NC2=O)c1 (stereo unspecified)	.	-1.8	7	-5	1	.	.
Cc1ccc(-n2c(=O)c3sccc3n(Cc3cc(=O)n4cc(Cl)ccc4n3)c2=O)cc1F	-19	2.8	-2	6	3	14	2044
COc1ccc(CN2CCC(=O)N([C@H](CO)c3ccccc3)CC2)cc1	-1	.	.	.	.	-2	3739
Cc1c(C(=O)OCC(=O)Nc2ccc(C(=O)N(C)C)cc2)oc2ccccc12	-17	-0.7	12	-2	-5	-1	6503
Cc1ccc(OCC(=O)NN=C/C=C/c2ccco2)c(Br)c1	.	0.9	8	4	-5	.	.
COCCCNC(=O)C1CCCN(S(=O)(=O)c2cccc3nsnc23)C1 (stereo unspecified)	-15	-2.1	-3	-1	-1	3	5238
CC(N=Cc1ccccc1O)c1ccccc1 (stereo unspecified)	-25	3.9	8	7	3	5	8103
